Screening data (PubChem BioAssay)
INS promoter inh = inhibitors of insulin promoter-driven GFP, primary screen, imaging, TRM-6 cells (human fetal islet line), eGFP reporter, cell count; reporter expression induced with tamoxifen; 130,000 tested, 0.9% active; inhibition, % at 2 µM; AID 1273, 2008;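 active means inhibition above the mean plus 3 SD, with well images judged a real hit on visual review, cut at about 60% in these data, passing the limit was not always enough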
PKD1 inh = inhibitors of human PKD1 kinase, biochemical, fluorescence polarization. Serine/threonine-protein kinase D1 (Homo sapiens), Q15139. PKD1 kinase fluorescence polarization assay. inhibition, %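 (about 10 µM by stock and volumes)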. 200,000 tested, 0.056% active. AID 797, 2007;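 active means inhibition of 50% or more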;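 further: controls were vehicle for no effect and a reference inhibitor for full effect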
Target sequence (Q15139 whole entry, looked up): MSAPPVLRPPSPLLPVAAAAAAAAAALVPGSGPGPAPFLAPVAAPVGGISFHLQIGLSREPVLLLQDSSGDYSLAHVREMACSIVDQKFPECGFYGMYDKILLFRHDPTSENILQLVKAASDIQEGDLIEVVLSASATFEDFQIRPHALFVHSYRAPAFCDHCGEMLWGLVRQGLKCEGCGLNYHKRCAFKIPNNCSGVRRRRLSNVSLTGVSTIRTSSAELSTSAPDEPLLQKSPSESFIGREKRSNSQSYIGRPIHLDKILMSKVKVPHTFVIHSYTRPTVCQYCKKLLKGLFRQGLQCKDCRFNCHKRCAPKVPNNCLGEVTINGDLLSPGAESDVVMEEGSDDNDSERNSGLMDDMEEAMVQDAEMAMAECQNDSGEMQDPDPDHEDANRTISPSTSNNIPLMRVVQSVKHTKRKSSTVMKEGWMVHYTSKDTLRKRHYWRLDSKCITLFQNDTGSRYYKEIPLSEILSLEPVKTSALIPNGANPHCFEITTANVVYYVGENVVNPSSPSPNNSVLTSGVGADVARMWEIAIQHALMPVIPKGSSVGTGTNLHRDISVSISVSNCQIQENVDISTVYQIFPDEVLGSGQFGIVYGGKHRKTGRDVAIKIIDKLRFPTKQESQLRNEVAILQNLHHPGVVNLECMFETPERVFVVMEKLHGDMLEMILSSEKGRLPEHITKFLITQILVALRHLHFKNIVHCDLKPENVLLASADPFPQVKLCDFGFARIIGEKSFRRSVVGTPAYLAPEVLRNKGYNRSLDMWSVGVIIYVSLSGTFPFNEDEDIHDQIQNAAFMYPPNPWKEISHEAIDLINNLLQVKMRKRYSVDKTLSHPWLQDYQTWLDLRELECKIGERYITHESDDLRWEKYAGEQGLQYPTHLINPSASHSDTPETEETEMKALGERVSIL
GALR2 agonist = GALR2 receptor agonists, primary screen, cell-based. Galanin receptor type 2 (Homo sapiens), O43603. GALR2-expressing cells, agonist activation read-out. activation, %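 (tested at 5 µM)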. 140,000 tested, 0.48% active. AID 803, 2007;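 active means above mean plus 3 SD of all compounds, about 5% in these data, not always enough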;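 further: 0% = vehicle buffer wells and 100% = reference agonist at full effect; tested in CHO reporter cells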
RGS16-Gao HTS = modulators of RGS16 binding to Galphao, primary screen, biochemical, human proteins, multiplexed bead flow cytometry | Regulator of G-protein signaling 16 (Homo sapiens) + Guanine nucleotide-binding protein … | bead-based flow cytometry RGS16-Galphao binding, fluorescence; actives lie on both sides | binding response (% of control), % at 10 µM | 220,000 tested, 0.38% active | AID 1441, 2008;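 active means below 25% or above 175%, edge rows of some plates excepted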;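 further: Galphao activated by GDP with aluminum fluoride before binding; 100% = wells without compound and 0% = beads without RGS; some results beyond the cut were filed as inactive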
HSV augment = enhancers of HSV replication in host cells, fold increase, host cell viability | HSV replication augmentation in cells | 220,000 tested, 0.005% active | maximum fold increase | AID 1956, 2009;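 active means peak rise of 1.5-fold or more in the series; tested in PC3 cells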;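 further: first round at 10 µM; read as green reporter fluorescence; hits show the peak of a series up to 25 µM; 1 = signal of infected wells without compound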
INS promoter inh cell count = also measured in INS promoter inh; calls as there; normalized cell count, %; measured here: cell count, toxicity; reference of the scale not given here;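 cells exposed to compound for 48 h; stained nuclei by imaging scaled within each plate; lower means fewer cells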
HSV augment primary fold = recorded beside HSV augment, whose call it bears; fold increase; compound at 10 µM; measured here: primary screen fold increase 10 uM; tested in PC3 cells;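 GFP signal in the first replicate; 1 = infected wells without compound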
The depositor's hits bear a star; i = inactive; · = no result given.

structure,INS promoter inh,INS promoter inh cell count,PKD1 inh,GALR2 agonist,RGS16-Gao HTS,HSV augment,HSV augment primary fold
CCc1cccc(CC)c1NC(=O)COC(=O)c1ccc2c(c1)S(=O)(=O)c1ccccc1C2=O,·,·,3,-0.7,99,i,1.1
CCOC(=O)c1c(C)[nH]c(C(=O)COC(=O)CNC(=O)c2ccccc2Cl)c1C,·,·,-11,-0.1,103,i,0.83
N/C(Cc1ccc(Cl)c(Cl)c1)=N\OC(=O)c1ccc(Br)o1,·,·,·,·,100,i,0.86
Cc1ccc(S(=O)(=O)N2CCCC(C(=O)Nc3ccc(C(=O)O)cc3)C2)cc1Cl (centres undefined),·,·,-3,·,104,i,1.1
CCc1cccc(OCCn2nc(C(=O)O)c3ccccc3c2=O)c1,40,40,-11,·,112,i,0.91
Nc1nonc1-c1noc(N2CCCCC2)n1,-50,66,-7,-1.9,99,i,0.99
COc1cc(C(=O)Nc2ccncc2)cc(OC)c1OC,29,117,4,-0.3,103,i,0.85
COc1ccc(-c2nnn(Cc3nn[nH]n3)n2)cc1OC,-23,135,-13,-1.5,97,i,0.95
c1ccc2c(c1)COC(CNC1CCCCC1)OC2,·,·,5,·,107,i,0.95
CC1CCCCC1NC(=O)CSCC(=O)O (centres undefined),-3,129,1,-0.1,102,i,0.95
CCOC(=O)c1c(CN(C)C)n(-c2ccccc2)c2cc(Br)c(O)cc12,·,·,1,·,97,i,1.1
CCOC(=O)c1c(C)nc2c(c1-c1cc(OC)ccc1OC)C(=O)c1ccccc1-2,·,·,-21,-1.8,102,i,0.88
O=C(CCn1nc(-c2ccc(Cl)cc2)ccc1=O)NCc1cccnc1,38,116,-2,-2.5,100,i,0.87
CCN(CC)S(=O)(=O)c1ccc2c(c1)N(CC(=O)NCCc1ccc(S(N)(=O)=O)cc1)C(=O)CO2,·,·,0,·,106,i,1.2
Cc1nc2cc(N3CCCCC3)c(NC(=O)c3ccncc3)cc2c(=O)n1Cc1ccc(Cl)cc1,·,·,-7,-2.3,110,·,·
CCC12CN3CCN(CC(C3)/C1=N\NC(=O)Nc1ccccc1)C2,-26,98,-8,-1.2,102,i,0.95
Cc1cc(C)cc(NC(=O)C2CCCN2/C=C/C(=O)C(F)(F)F)c1 (centres undefined),·,·,1,-1.5,101,i,1.1
CC(C)N1CCC(N2CCN(Cc3ccc(C#CC(C)(C)O)s3)CC2CCO)CC1 (centres undefined),·,·,-2,·,98,i,0.98
Cc1ccc(-c2nn(-c3ccccc3)cc2/C=N/NC(=O)c2ccc(Br)o2)cc1,23,75,13,-1.2,96,i,0.76
COc1ccccc1N(C)S(=O)(=O)c1ccc(C(=O)OCC(=O)Nc2cc(C)on2)cc1,12,101,-4,·,99,i,0.95

Quoted at random: 5 entries already listed, in no set order.
structure,INS promoter inh,INS promoter inh cell count,PKD1 inh,GALR2 agonist,RGS16-Gao HTS,HSV augment,HSV augment primary fold
c1ccc2c(c1)COC(CNC1CCCCC1)OC2,·,·,5,·,107,i,0.95
CCOC(=O)c1c(C)[nH]c(C(=O)COC(=O)CNC(=O)c2ccccc2Cl)c1C,·,·,-11,-0.1,103,i,0.83
Cc1ccc(-c2nn(-c3ccccc3)cc2/C=N/NC(=O)c2ccc(Br)o2)cc1,23,75,13,-1.2,96,i,0.76
Cc1nc2cc(N3CCCCC3)c(NC(=O)c3ccncc3)cc2c(=O)n1Cc1ccc(Cl)cc1,·,·,-7,-2.3,110,·,·
COc1cc(C(=O)Nc2ccncc2)cc(OC)c1OC,29,117,4,-0.3,103,i,0.85

Remaining list, next part
structure,INS promoter inh,INS promoter inh cell count,PKD1 inh,GALR2 agonist,RGS16-Gao HTS,HSV augment,HSV augment primary fold
CCCCC(c1nnnn1CCOC)N1CCN(C(=O)c2ccco2)CC1 (centres undefined),·,·,-5,-0.4,113,i,1
Cc1ccc(C(=O)Nc2nc3ccccc3n3nnnc23)cc1,13,94,-9,-1.6,95,i,0.91
Cc1ccc(Oc2ncccc2CO)cc1,-45,163,-8,·,111,i,0.84
COCCNC(=O)Cn1c(=O)n(CCC(=O)NCCc2ccccc2)c(=O)c2ccccc21,-6,112,-1,-2.1,109,i,0.96
CC1(O)CC(=O)N(c2ccccc2)O1 (centres undefined),·,·,8,-1.6,101,i,0.79
CC(C)c1cc(C(=O)NCc2cccnc2)no1,·,·,-10,-2.3,113,i,0.79
COc1ccc(C2(O)CCN(Cc3nnnn3Cc3ccc(F)cc3)CC2)cc1,-75,131,1,0.0,105,i,1.1
Cc1ccc2c3c(cccc13)-c1ccccc1C2=O,-37,156,4,-1.6,95,i,0.82
CC1CN(C2CCN(S(=O)(=O)c3ccccc3)CC2)CC(C)O1 (centres undefined),33,97,5,-0.6,106,i,0.91
COc1ccc(C(CC(=O)O)NC(=O)Cc2ccccc2)cc1OC (centres undefined),22,120,4,-0.4,109,i,1
COc1ccccc1CNC(=O)CSc1ccc(-c2ccccn2)nn1,-33,122,-5,·,109,i,0.94
Cc1c(CN2CCCC(C(=O)c3cccc(OC(C)C)c3)C2)c(=O)n(-c2ccccc2)n1C (centres undefined),·,·,-1,·,109,i,0.95
Cc1sc(NC(=O)CCC(=O)O)c(C(N)=O)c1-c1ccccc1,14,150,2,-0.3,126,i,0.96
COc1cc2ncnc(NCc3cccc(Cl)c3)c2cc1OC,·,·,3,·,98,i,0.92
Cc1ccc2c(c1)N(CC(=O)N1CCCc3ccccc31)C(=O)C(C)O2 (centres undefined),26,136,1,-0.5,103,i,1.1
Cc1cccc(-n2c(-c3ccncc3)n[nH]c2=S)c1,-112,108,-5,-1.1,99,i,0.89
O=C(COc1ccc(F)cc1)NC1CC1,·,·,3,-0.5,102,i,0.85
COc1cc(C(=O)Nc2nc(-c3cccs3)cs2)cc(OC)c1OC,50,82,-10,2.1,93,i,0.68
CCC(=O)N(CCCN(C)C)c1nc(-c2cc(OC)ccc2OC)cs1,-29,126,-4,-0.8,103,i,0.66
COc1ccc(N2CC(O)=C(c3nc(-c4ccccc4)cs3)C2=N)cc1,·,·,·,·,101,i,0.92

Brought forward from above: two compounds; new compounds follow.
structure,INS promoter inh,INS promoter inh cell count,PKD1 inh,GALR2 agonist,RGS16-Gao HTS,HSV augment,HSV augment primary fold
CCC(=O)N(CCCN(C)C)c1nc(-c2cc(OC)ccc2OC)cs1,-29,126,-4,-0.8,103,i,0.66
COc1ccc(N2CC(O)=C(c3nc(-c4ccccc4)cs3)C2=N)cc1,·,·,·,·,101,i,0.92
Cc1ccc(C)n1-c1nn(S(=O)(=O)c2ccccc2)c2cccc(F)c12,·,·,·,·,100,i,1.1
CCN(C(=O)COc1cccc2cccnc12)C1CCS(=O)(=O)C1 (centres undefined),45,81,-5,·,113,i,1
CCC/C(=N/NC(=O)c1ccccc1Cl)c1ccccc1,·,·,-3,·,102,i,0.85
Cc1ccnc(NS(=O)(=O)c2ccc(NC(=O)/C=C/c3ccccc3)cc2)n1,·,·,·,·,105,i,0.96
O=C(/C=C/c1ccco1)N1CCN(S(=O)(=O)c2ccc(F)c(F)c2F)CC1,9,124,-2,·,96,i,1.1
C=CCC1c2cccc(C(=O)O)c2C(=O)N1c1cccc(C)c1 (centres undefined),-47,105,-7,-1.5,103,i,0.81
COc1ccccc1NC(=O)CN(Cc1ccco1)C(=O)c1cccs1,·,·,-10,-2.0,99,i,0.76
CCc1cc(=O)oc2cc(OCC(N)=O)c(Cl)cc12,41,112,-2,0.3,108,i,1
COc1ccc(NC(=O)CNc2cc(S(=O)(=O)N3CCOCC3)ccc2NCC2CCCO2)cc1 (centres undefined),·,·,-3,·,97,i,0.93
CCn1c(=O)c(C(=O)NNS(=O)(=O)c2ccc(C)cc2)c(O)c2ccccc21,22,146,-7,-0.6,99,i,0.9
CCOC(=O)Cc1csc(NC(=O)COc2cccc(C)c2)n1,8,98,0,·,105,i,0.94
CC(C)CCN1C(=O)c2ccc(C(=O)OCn3nnc4ccccc4c3=O)cc2C1=O,·,·,-5,-3.2,98,i,0.95
CCc1ccccc1NC(=O)CSc1nc2c(c(-c3ccco3)c1C#N)CCCC2,27,144,-2,0.7,109,i,0.87
CCc1ccc(OCCn2cccn2)cc1,·,·,-5,·,102,i,1.1
CCN(CC)CCn1c(=O)n(-c2ccc(Cl)cc2)c(=O)c2c3c(sc21)CN(C)CC3,·,·,·,·,108,i,1.1
O=C(OCc1ccc(F)cc1)c1ccc2ccccc2n1,-25,92,1,·,106,i,1.1
CCc1ccc(C(=O)CCC2CCCCC2=O)cc1 (centres undefined),-11,114,-13,-2.1,101,i,0.98
O=C(C1COc2ccccc2O1)N1CCc2ccccc21 (centres undefined),·,·,4,0.6,98,·,·
Cc1cccc(N2CCN(C(=O)c3ccc(NC(=O)C4CCCO4)cc3)CC2C)c1 (centres undefined),31,106,-16,-0.6,99,i,0.88
OCCN1CCN(CCCc2c3c(cc4c2CCC4)CCC3)CC1,-183,75,-16,0.2,103,i,0.97

(cont.)
structure,INS promoter inh,INS promoter inh cell count,PKD1 inh,GALR2 agonist,RGS16-Gao HTS,HSV augment,HSV augment primary fold
COc1cccc(C2CC(c3c(Cl)cccc3Cl)n3nc(N)nc3N2)c1 (centres undefined),·,·,9,-2.1,102,i,0.9
Cc1ccc(-c2cn3nc(C)c(C)nc3n2)cc1,·,·,-2,-2.4,100,·,·
Cc1nc(NS(=O)(=O)c2ccccc2)sc1C(=O)N/N=C/c1ccccc1,·,·,·,·,104,i,1.2
CCn1c(Cn2nnc(-c3ccccc3)n2)nnc1SCC(=O)Nc1cccc(C(C)=O)c1,-136,62,-6,-1.8,93,i,0.84
Cn1c(Cn2c(=O)sc3ccccc32)nnc1SCC(=O)Nc1ccc(F)cc1,·,·,-3,-0.6,84,i,0.97
COc1ccc(CCNC(=O)Cn2c(=O)oc3ccccc32)cc1OC,24,112,-12,-2.2,100,i,0.95
CCCCSC1=N/C(=C/c2ccsc2)C(=O)N1c1ccccc1,6,50,-9,0.1,101,i,1
Cc1nonc1NC(=O)CSc1ccc(-c2ccccc2)nn1,·,·,-1,-0.2,101,i,0.88
O=C(COC(=O)CCc1ccccc1)Nc1cc(S(=O)(=O)N2CCOCC2)ccc1N1CCCC1,·,·,3,·,100,i,1
COc1ccc2c(c1)C1=NN(/C(C)=C/C(C)=O)C(c3cccc(F)c3)C1CC2 (centres undefined),·,·,-3,-0.3,111,i,1.1
Fc1ccccc1-c1nc(NCCCN2CCOCC2)c2ccccc2n1,22,75,-13,-1.8,98,i,1
Cc1cc(C)n(/C(=C/N(C)C)C(=O)c2ccccc2)n1,·,·,0,·,100,i,0.91
CCOC(=O)C(NC=O)(NC(C)(C)C)C(=O)OCC,-15,93,9,-1.1,104,i,0.95
NCCCC[C@@H]1NC(=O)[C@H](CCC(=O)O)NC(=O)c2cc([N+](=O)[O-])cc(I)c2OCC[C@@H](C(N)=O)NC1=O,5,113,-2,-1.3,101,i,0.87
CCN1CCN(Cc2cc(=O)oc3ccc(Cl)cc23)CC1,14,88,-1,-2.3,245,i,0.82
CCCCOc1ccc(C(=O)N/C(=C/C=C/c2ccccc2)C(=O)NCCCO)cc1,28,131,1,0.6,105,i,1
CCOC(=O)c1ccccc1C(=O)N1CCOCCOCCOCC1,38,102,-8,-1.1,110,i,0.97
COc1cccc(N2CCCn3c2nc2c3c(=O)n(CCN3CCOCC3)c(=O)n2C)c1,29,140,-3,-0.7,99,i,0.74
Cc1nn(C(C)C)c(C)c1[C@@H]1C[C@H]2CN(Cc3cccc(Cl)c3)C(=O)[C@]23CCCN13,·,·,·,·,79,i,0.91
CC(C)(C)c1nnc(NC(=O)c2cccnc2)s1,-5,126,-8,·,102,i,1.1
O=C(O)/C=C/C(=O)Nc1ccc2c(c1)NC(=O)CO2,-100,84,-5,·,109,i,1.1
